PV pol inh: poliovirus RNA polymerase inhibition; % elongation, % (compound at 16.7 µg/mL); AID 588519; P03300; actives 0.66% (n = 150,000); poliovirus polymerase elongation, fluorescence polarization; stronger effect = lower value; in the data active = % elongation below about 90%; also: some results filed as inactive read as strong as hits
Target sequence (P03300 1749-2209 limits assumed): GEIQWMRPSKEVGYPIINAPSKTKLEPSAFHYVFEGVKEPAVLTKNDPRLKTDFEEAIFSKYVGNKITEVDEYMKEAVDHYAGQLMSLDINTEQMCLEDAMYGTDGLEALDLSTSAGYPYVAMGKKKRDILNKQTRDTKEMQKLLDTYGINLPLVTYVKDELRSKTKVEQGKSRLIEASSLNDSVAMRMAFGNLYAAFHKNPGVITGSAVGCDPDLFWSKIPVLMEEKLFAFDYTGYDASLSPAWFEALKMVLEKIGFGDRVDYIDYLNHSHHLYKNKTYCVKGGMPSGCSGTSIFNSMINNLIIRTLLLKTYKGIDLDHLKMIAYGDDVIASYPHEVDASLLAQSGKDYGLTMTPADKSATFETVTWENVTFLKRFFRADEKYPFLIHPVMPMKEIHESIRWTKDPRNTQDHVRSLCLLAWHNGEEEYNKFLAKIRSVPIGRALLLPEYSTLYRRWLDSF
MbtI inh: blocks the Mycobacterium tuberculosis siderophore enzyme MbtI | P9WFX0 | purified MbtI enzyme, fluorescence intensity read-out | inhibition, %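 (about 17 µg/mL by stock and volumes)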 | actives 0.89% (n = 100,000);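 active = above 50% in both replicates, above 80% if mildly self-fluorescent; inactive = the rest, strongly fluorescent compounds included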;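 also: 0% = mean of negative and 100% = mean of positive controls; one replicate is shown; some compounds called inactive have numbers as strong as hits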
MenB inh: inhibitors of Mycobacterium tuberculosis MenB enzyme | P9WNP5 | MenB enzyme assay, absorbance read-out; some hits fall short of the stated cut | inhibition, %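 (about 12 µg/mL by stock and volumes)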 | actives 0.43% (n = 100,000) | AID 540299;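 active = mean of two replicates above 30%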;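 also: 0% = no compound and 100% = wells with inactive enzyme; the first replicate is given; strong numbers were not always called active; inactives centre near -10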
Target sequence (P9WNP5 whole entry, looked up): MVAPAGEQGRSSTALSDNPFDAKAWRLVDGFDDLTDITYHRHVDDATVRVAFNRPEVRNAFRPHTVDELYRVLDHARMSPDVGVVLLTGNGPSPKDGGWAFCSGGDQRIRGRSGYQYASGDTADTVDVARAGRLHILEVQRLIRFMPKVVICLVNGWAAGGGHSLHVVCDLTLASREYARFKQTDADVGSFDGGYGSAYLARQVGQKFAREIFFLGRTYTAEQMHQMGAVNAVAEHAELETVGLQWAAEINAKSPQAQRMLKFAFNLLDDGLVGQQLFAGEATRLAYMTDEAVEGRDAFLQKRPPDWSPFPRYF
PV pol inh intensity: further read-out of PV pol inh, marked with its call; % elongation; measured here: total intensity read-out; formula for this scale not given here;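 total fluorescence in place of polarization; lower means less elongation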
Active calls of the source: *; nt = not tested or not shown; & = joins results of further samples.

Values run as follows: PV pol inh intensity | MenB inh | PV pol inh | MbtI inh
1) COC(=O)C(F)(Sc1c[nH]c2ccccc12)C(F)(F)F (stereo not drawn)
    100 | -17 | 101 | -4
2) O=C(O)c1c2c(nc3ccc(S(=O)(=O)N4CCC(C(=O)NC5CCCC5)CC4)cc13)CCCCC2
    101 | -4 | 101 | -9
3) CC[C@@H]1/C=C(\C)C[C@H](C)C[C@H](OC)[C@H]2O[C@@](O)(C(=O)C(=O)N3CCCC[C@H]3C(=O)O[C@H](/C(C)=C/[C@@H]3CC[C@@H](O)[C@H](OC)C3)[C@H](C)[C@@H](O)CC1=O)[C@H](C)C[C@@H]2OC
    103&101 | -8 | 99&100 | -10
4) CN(CC(=O)O)c1ncc(-c2nnnn2-c2ccccc2)c(-c2ccccc2Cl)n1
    122 | 3 | 108 | 1
5) O=C(c1ccc2c(c1)C(=O)N(CC1CCCO1)C2=O)c1ccc2c(c1)C(=O)N(CC1CCCO1)C2=O (stereo not drawn)
    104 | 12 | 99 | 4
6) CCOC(=O)Oc1ccc2oc(=O)cc(C)c2c1
    99 | -7 | 101 | 2
7) OC1CCCN(Cn2nc(-c3ccccc3)n(-c3ccc(F)cc3F)c2=S)C1 (stereo not drawn)
    111 | -34 | 106 | -15
8) CCc1ccc(NC(=O)c2noc3ncnc(N4CCCC4)c23)cc1
    103 | -25 | 102 | -4
9) Clc1snnc1CN1CCOCC1
    110 | -14 | 102 | -4
10) COc1ccc(S(=O)(=O)n2nc(-n3c(C)ccc3C)c3c(F)cccc32)cc1OC
    110 | -6 | 107 | -5
11) NC(=O)COc1ccc2oc(-c3ccccc3)cc(=O)c2c1
    101 | -43 | 101 | 76
12) Cc1ccc2c(c1)NC(C(F)(F)F)(C(F)(F)F)NC2=O
    109 | -18 | 102 | 6
13) Cc1nccc2[nH]c(=O)c(C(=O)NC(C)CCc3ccccc3)cc12 (stereo not drawn)
    102 | 5 | 101 | -4
14) CCCn1c(=O)n(C)c(=O)c2c(SCC(=O)NCC3CCCO3)nc(C(C)(C)C)nc21 (stereo not drawn)
    103 | -15 | 98 | 9
15) Cc1ccccc1NC(=O)CC(C(=O)O)N(C)C (stereo not drawn)
    96 | -15 | 100 | -10
16) NC(=O)N/N=C1/C=C(c2ccccc2)C(O)(c2ccccc2)C1 (stereo not drawn)
    107 | -1 | 108 | -3
17) C=CCSc1nc2c(c(=O)[nH]1)C(c1ccccc1)C1=C(CCCC1=O)N2 (stereo not drawn)
    109 | -20 | 102 | 6
18) C=CCNC(=O)C1CC(=O)N(c2ccc(OCC(=O)N3CCCC3)cc2)C1 (stereo not drawn)
    110 | -11 | 104 | nt
19) CCOc1ccc(NC(=O)CC2C(=O)NCCN2C(=O)c2ccccc2)cc1 (stereo not drawn)
    103 | -4 | 102 | -5
20) CCOC(=O)N1CCC(NC(=O)Cn2ncc3c(=O)oc4ccccc4c32)CC1
    106 | -26 | 102 | -4
21) Cc1nnc(SCCCn2c(N3CC(C)OC(C)C3)nc3c2c(=O)[nH]c(=O)n3C)s1 (stereo not drawn)
    100 | -9 | 104 | 11
22) N#C/C(=C/c1ccc2c(c1)OCO2)c1ccc(Cl)cc1Cl
    109 | 1 | 107 | nt
23) CCc1ccc(NC(=O)CN(c2ccc(C)cc2)S(=O)(=O)c2cccc3nonc23)cc1
    103 | -21 | 102 | -4
24) CCCCCC1CC(CC(=O)Nc2nncs2)C(=O)O1 (stereo not drawn)
    102 | 29 | 103 | -6
25) CCCCC(CC)CSc1nc2ncccc2[nH]1 (stereo not drawn)
    111 | -20 | 101 | nt
26) CCOC(=O)Cc1csc2nc3sc4c(c3c(=O)n12)CCCC4
    97 | 13 | 106 | 11
27) C/C(N)=C(/C#N)C(=O)CSc1nc(C)cs1
    98 | -5 | 98 | 12
28) Cc1noc(C)c1CSc1ncccc1C(=O)Nc1ccc2c(c1)OCCO2
    107 | -11 | 109 | -4
29) NNC(=O)c1ccc2c(=O)[nH][nH]c(=O)c2c1
    93 | -32 | 102 | nt
30) N#Cc1cc2c(nc1SCC(=O)Nc1ccc(F)cc1)CCCC2=O
    104 | -14 | 101 | -3
31) O=c1ccnc(SCc2cn3ccccc3n2)[nH]1
    108 | 3 | 99 | -34
32) C#CCn1nnc(-c2cc(C(F)(F)F)cc(C(F)(F)F)c2)n1
    106 | -19 | 103 | 1
33) Cc1nc(C(N)=O)c(N)n1CCO
    101 | 4 | 105 | nt
34) Cc1sc(-n2cccc2)c(C(=O)O)c1C
    99 | -7 | 104 | nt
35) CC(C)CCC1(C)NC(=O)N(CC(=O)c2ccc[nH]2)C1=O (stereo not drawn)
    162 | -3 | 136 | 10
36) CC(C)(C)C(=O)Nc1cc(C(F)(F)F)ccc1-n1ccnc1
    108 | nt | 102 | -11
37) CN(C)c1ccc(N/C=C(\C#N)c2nc3ccccc3[nH]2)cc1
    118 | -58 | 103 | -3
38) Cc1cc(C(F)(F)F)c2c(C)nn(CCc3nn[nH]n3)c2n1
    110 | -8 | 106 | -2
39) CC(C)(C)c1cc(C(=O)NCc2ccco2)ccn1
    103 | -30 | 102 | -18
40) Cc1ccccc1N(C(=O)CCc1c(C)noc1C)c1nc2ccccc2s1
    104 | 0 | 103 | -1
41) CS(=O)(=O)N(CCC(=O)O)Cc1ccccc1
    102 | 11 | 100 | -12
42) Nn1cnc2ccccc2c1=O
    103 | -18 | 104 | -21
43) CC(=O)N1CCN(C(=O)c2nn(Cc3ccccc3)c(=O)c3ccccc23)CC1
    106 | 11 | 99 | -1
44) Cc1noc(C)c1CCC(=O)Nc1ccc(Br)cc1Cl
    110 | -9 | 105 | -4
45) Cc1ccc(NC(=O)C2(c3ccccc3)CCCC2)nc1
    109 | -5 | 103 | nt

An excerpt from above in order of molar mass, smallest number first:
Values run as follows: PV pol inh intensity | MenB inh | PV pol inh | MbtI inh
33) Cc1nc(C(N)=O)c(N)n1CCO
    101 | 4 | 105 | nt
45) Cc1ccc(NC(=O)C2(c3ccccc3)CCCC2)nc1
    109 | -5 | 103 | nt
36) CC(C)(C)C(=O)Nc1cc(C(F)(F)F)ccc1-n1ccnc1
    108 | nt | 102 | -11
44) Cc1noc(C)c1CCC(=O)Nc1ccc(Br)cc1Cl
    110 | -9 | 105 | -4
40) Cc1ccccc1N(C(=O)CCc1c(C)noc1C)c1nc2ccccc2s1
    104 | 0 | 103 | -1

Limited to PV pol inh intensity and MbtI inh, for 2 of the compounds above:
| item | SMILES | PV pol inh intensity | MbtI inh |
| --- | --- | --- | --- |
| 39 | CC(C)(C)c1cc(C(=O)NCc2ccco2)ccn1 | 103 | -18 |
| 40 | Cc1ccccc1N(C(=O)CCc1c(C)noc1C)c1nc2ccccc2s1 | 104 | -1 |

Next section:
Values run as follows: PV pol inh intensity | MenB inh | PV pol inh | MbtI inh
46) O=C1c2ccccc2C(=O)N1CCC1=NCCc2ccccc21
    107 | -2 | 102 | -5
47) CC(C)Oc1ccc(CNC(=O)C2CCCN(S(=O)(=O)N(C)C3CCCCC3)C2)cc1 (stereo not drawn)
    102 | 4 | 101 | -20
48) CC(=O)SC1CC(=O)N(c2ccc(C(F)(F)F)cc2)C1=O (stereo not drawn)
    103 | -4 | 101 | 3
49) COCCn1c(SCc2ccncc2)nc2ccccc2c1=O
    102 | 18 | 103 | 0
50) NS(=O)(=O)c1ccc(CCNC(=O)CSc2ccc3c(c2)OCCO3)cc1
    92 | -20 | 175 | -4
51) CNC(=S)NCCCN1CCN(c2ccc(F)c(Cl)c2)CC1
    101 | -4 | 102 | 41
52) COc1ccccc1CNC(=O)CSC1=NCCS1
    102 | 19 | 106 | 84
53) O=C1CCCN1CCCNc1nc(-c2ccccc2)no1
    103 | -17 | 102 | -18
54) Oc1ccccc1-c1cc(-c2ccccc2O)nc(-c2ccccc2)n1
    111 | -11 | 110 | nt
55) CC1(C)S[C@@H]2[C@H](NC(=O)[C@@H](N)c3ccc(O)cc3)C(=O)N2[C@H]1C(=O)O
    103 | 12 | 101 | -15
56) COc1cccc(/C=N/c2nnc(C)s2)c1O
    98 | -48 | 101 | 18
57) CC(C#N)Sc1nnc2ccccn12 (stereo not drawn)
    113 | -28 | 108 | 1
58) Cc1ccccc1-c1nn[nH]n1
    101 | nt | 100 | -2
59) Cc1ccc2[nH]c(O)c(N=NC(=O)Cc3cn4ccsc4n3)c2c1
    87 | -44 | 96 | -6
60) COc1ccc(CCNC2CC(=O)N(C3CCCCC3)C2=O)cc1OC (stereo not drawn)
    104 | -2 | 101 | -8
61) Cc1ccc(-n2ccnc2SCC(=O)NC(=O)C2COc3ccccc3O2)c(C)c1 (stereo not drawn)
    107 | -29 | 105 | -3
62) Oc1c(/C=C2\C=Nc3ccccc32)sc(=Nc2ccccc2)n1C1CCCC1
    106 | -16 | 108 | nt
63) CC(CC(=O)NC1CCCC1)CC1=NS(=O)(=O)c2ccccc2N1 (stereo not drawn)
    102 | -5 | 102 | -15
64) CC1S/C(=C\c2nc3ccccc3s2)NC1=O (stereo not drawn)
    116 | -39 | 114 | 31
65) Nc1c(C(=O)c2ccc(Cl)s2)sc2c1c(=O)[nH]c(=O)n2Cc1cccs1
    126 | -14 | 102 | -11
66) Cc1ccc(P(=O)(N2CCOCC2)N2CCOCC2)o1
    112 | -14 | 111 | -6
67) O=C(Cn1nc(Cc2cccnc2)c2ccccc2c1=O)N1CCCC1
    107 | -4 | 102 | -12
68) O=C(CSc1cccc(-c2ccccc2)n1)c1cccs1
    125 | -14 | 119 | nt
69) Cc1nc2[nH]n(-c3ccccc3)c(=O)c2c(C)c1CCC(=O)Nc1ccccc1
    100 | -17 | 104 | 10
70) O=C(c1ccc2sc(=S)[nH]c2c1)N1CCCC1
    105 | -28 | 99 | nt
71) Cc1cc(C)n(C(=O)NC2CCCCC2)n1
    104 | nt | 103 | -1
72) O=C(Cn1cnc2c(cnn2-c2ccccc2)c1=O)c1ccccc1
    101 | -45 | 103 | -5
73) CCCCn1c(C2CCCO2)nc2ccccc21 (stereo not drawn)
    98 | 12 | 98 | 23
74) CN(C)CCN1CCNCC1
    106 | 34* | 103 | -1
75) CCCCn1c(CCC(=O)O)ccc1-c1cccs1
    103 | -12 | 103 | 116
76) CN(CC(=O)O)Cc1nc2ccccc2[nH]1
    106 | -14 | 99 | -4
77) Cc1cccc(C(=O)Cc2ccccc2O)c1
    103 | nt | 105 | 46
78) C=Cc1c(C)c2cc3[nH]c(cc4nc(cc5nc(cc1[nH]2)C(C)=C5CCC(=O)O)C(CCC(=O)O)=C4C)c(C)c3C=C
    99 | -4 | 99 | -23
79) COC(=O)Nc1c(-c2ccccc2)nc2ccc(C)cn12
    101 | -34 | 105 | 133
80) COc1cccc(-c2nnc(SCN3C(=O)c4ccccc4C3=O)n2Cc2ccco2)c1
    103 | 3 | 108 | 2
81) Cn1cnnc1Sc1ccc(Cl)cc1NS(=O)(=O)c1ccc2c(c1)OCCO2
    107 | 16 | 101 | 41
82) O=C(O)C1(S(=O)(=O)c2ccc(Cl)cc2)CCCC1
    109 | -10 | 107 | nt
83) O=C(CN1C(=O)c2ccc(Br)cc2C1=O)OC1CCCCC1
    101 | -5 | 100 | -2
84) CCOCCn1c(=NC(=O)C(C)C)sc2cc(C)ccc21
    110 | 2 | 104 | 3
85) Cn1c(C2CC2)nc2ccccc21
    98 | -2 | 105 | 1
86) CN(CCc1ccccn1)C(=O)c1nn2c(C(F)(F)F)cc(-c3ccco3)nc2c1Cl
    103 | -131 | 103 | 18
87) CCN1C(=O)N(CC)C2NC(=O)NC21 (stereo not drawn)
    102 | 10 | 102 | 1
88) CCNC(=O)c1cccc2c1-c1ccccc1C2=O
    94 | -11 | 102 | -2
89) Cc1cc(C)cc(-n2ccn3c(CCC(=O)O)nnc3c2=O)c1
    103 | -2 | 98 | 4
90) COC(=O)c1ccccc1NC(=O)COC(=O)c1cc2ccccc2o1
    100 | -2 | 103 | 5
91) O=C(NCc1ccco1)c1cc(-c2ccc(F)cc2)no1
    100 | 2 | 102 | 6
92) CCCCS(=O)(=O)Nc1ccc(C(=O)NCC2CCCO2)cc1 (stereo not drawn)
    103 | -18 | 103 | -51
93) O=C1c2cccnc2C(=O)N1Cc1ccc(S(=O)(=O)NCc2ccccc2)cc1
    96 | -17 | 104 | -5
94) COc1ccc(/C=C2/C(=N)N3N=C(Cc4ccccc4)SC3=NC2=O)cc1OC
    107 | -6 | 105 | -1
95) O=C(c1ccncc1)N1C2C=CC(C2)C1(C(F)(F)F)C(F)(F)F (stereo not drawn)
    106 | -5 | 103 | -1
96) Clc1ncnc2sc3c(c12)CCCC3
    101 | -27 | 99 | 0
97) CCOC(=O)Cc1c(C)nc2cc(C)nn2c1C
    107 | 6 | 102 | 6
98) Nc1ccccc1S(=O)(=O)NC1=NCCCCC1
    98 | 5 | 107 | 10
99) CC(C)c1cc(C(C)C)c(S(=O)(=O)NCCO)c(C(C)C)c1
    102 | -45 | 101 | -6
100) O=C1NC(c2ccccc2)=NC1(Nc1ccccn1)C(F)(F)F (stereo not drawn)
    100 | -3 | 101 | -1
101) Cc1ccc2nc(COc3ncnc4ccccc34)cc(=O)n2c1
    105 | 0 | 104 | -64
102) COc1ccc(-n2c(C)nc3cc(C(=O)N4CCC5(CC4)OCCO5)ccc32)cc1
    102 | -34 | 101 | -6

Compound activity: PubChem, ICCB-Longwood Screening Facility, Harvard Medical School
